Bioassay records as filed in PubChem.
VDR inhibitor = Inhibitors of the vitamin D receptor (VDR): qHTS | Vitamin D3 receptor (Homo sapiens), P11473 | VDR-SRC2-3 peptide fluorescence polarization, 2 h | Potency, µM, for inactives: max response, negative = inhibition, actives largely listed as inhibitors | 400,000 compounds, 0.93% hits | AID 504847, 2011; active means well fitted inhibition curve with a large enough effect; inconclusive means small, poorly fitted or top-dose-only effect, or another doubt; inactive means no such curve, though single readings can be large or run the other way; further: series mostly up to about 120 µM
Target sequence (P11473 whole entry, looked up): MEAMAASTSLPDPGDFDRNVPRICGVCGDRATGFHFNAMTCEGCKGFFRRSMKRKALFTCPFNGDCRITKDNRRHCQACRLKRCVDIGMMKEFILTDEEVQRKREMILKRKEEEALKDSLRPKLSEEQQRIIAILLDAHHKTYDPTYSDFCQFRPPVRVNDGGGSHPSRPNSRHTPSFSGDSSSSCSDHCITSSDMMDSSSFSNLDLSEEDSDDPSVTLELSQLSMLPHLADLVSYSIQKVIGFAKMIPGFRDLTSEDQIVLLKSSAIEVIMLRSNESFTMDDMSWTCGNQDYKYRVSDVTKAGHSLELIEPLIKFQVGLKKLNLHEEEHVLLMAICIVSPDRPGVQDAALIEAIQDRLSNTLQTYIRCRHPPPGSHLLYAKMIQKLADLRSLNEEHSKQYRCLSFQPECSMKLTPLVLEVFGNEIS
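Fluorescence polarization assay of small-molecule disruption of VDR binding to coregulator peptide SRC2-3. Compounds and controls pin-transferred, then read after 2 h incubation at ambient room temperature.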
* hit, by the source's call; ? = inconclusive; & = joins results of further samples; [ ] = dose if it differs, or a comment. On the % scale 0 is the no-effect control and ±100 the full control effect; potency means the concentration at half of the fitted maximal effect. A portion of the library; the hit share may differ from the screen's.

SMILES	VDR inhibitor
CCOC(=O)C1CCN(C(=O)CCS(=O)(=O)c2ccc3c(c2)CCN3C(=O)CC)CC1	8%
CCC(=O)Nc1cccc(C2=NOC3(C2)C[C@@H](C(N)=O)N(C(=O)c2cc([N+](=O)[O-])cc([N+](=O)[O-])c2C)C3)c1 (stereo partly drawn)	-12%
O=C(/C=C/c1ccccc1)N/C(=C/c1ccccc1)C(=O)N1CCOCC1	-4%
c1csc(-c2cn3c(n2)SCC3)c1	7%
Cc1cc(C)cc(N(CC(=O)NC2CCCC2)C(=O)CCC(=O)Nc2nc(C)cs2)c1	23%
COc1ccccc1NS(=O)(=O)c1cccc(C(=O)NCc2ccccn2)c1	?
CCCCOc1ccc(S(=O)(=O)NNC(=O)c2cc3ccccc3o2)cc1	-1%
COc1ccc(S(=O)(=O)NCC(c2ccc(N(C)C)cc2)N2CCOCC2)cc1 (stereo not drawn)	8%
COc1ccc(CNC(=O)c2ccc(N3CCOCC3)c([N+](=O)[O-])c2)cc1	0%
CCCc1ccc2oc(C(=O)NCCCN3CCOCC3)c(C)c2c1	-4%
CCN(CC)CCNc1ccc(CO)c2sc3ccccc3c(=O)c12	-7%&-1%&7%
O=C(O)c1ccccc1CSc1nc2ccccc2[nH]1	-1%
CCOC(=O)C1C(c2cccc(F)c2)NC(=S)NC1(O)C(F)(F)F (stereo not drawn)	-13%
Cc1cc2n(c(=O)c1C#N)CCCN2c1ccccc1	-10%
COc1ccc(NC(=O)CN2C(=O)NC(c3ccccc3)(c3ccccc3)C2=O)cc1OC	5%
C/C=C(/C)C(=O)OC1Cc2c(ccc3ccc(=O)oc23)OC1(C)C (stereo not drawn)	6%&-13%
CCC(=O)OCCNc1cc(Sc2nccn2C)c2nonc2c1[N+](=O)[O-]	32µM*
COCCn1c(COc2ccc(C)cc2)nc2ccccc21	5%
COc1cc(C)c(CN2CCC(Cc3ccccc3)CC2)cc1C	-29%
Cc1ccc(-c2nnc(SCC(=O)O)n2N)cc1	-8%
CCOc1cc(C(c2c(C)[nH]n(-c3ccccc3)c2=O)c2c(C)[nH]n(-c3ccccc3)c2=O)ccc1O	?
CCOC(=O)c1c(NC(=O)CC2SC(N)=NC2=O)sc2c1CCCC2 (stereo not drawn)	2%
N=C1/C(=C/c2ccc(-c3cccc(C(=O)O)c3)o2)C(=O)N=C2SC(CC(=O)N3CCOCC3)=NN12	19%
Cc1ccccc1C(=O)Nc1cccc(C(=O)N/N=C/c2ccccn2)c1	-13%
CCOC(=O)Cn1cc(-c2ccccc2)nn1	9%
CCOC(=O)CSc1nc2c(sc3ccccc32)c(=O)n1Cc1ccc(C)cc1	10%
COc1ccc(CCNC(=O)CSc2nc(=O)n3cc(C)ccc3n2)cc1OC	-9%
CC(=O)O[C@H]1C[C@@]2(C)[C@@H](C[C@@H](O)[C@H]3[C@@]4(C)CC[C@@H](O)[C@@H](C)[C@@H]4CC[C@@]32C)/C1=C(\CCC=C(C)C)C(=O)O	?
Cc1nnsc1C(=O)Oc1ccc(C(C)C)cc1	-16%
CC(C)c1cc(C(=O)O)c2cnn(C(C)C)c2n1	?
CCc1ccc(N=C2NC(=O)CS2)cc1	-4%
CCCc1cc(=O)[nH]c(Nc2ccc(O)cc2C)n1	17%
CC(C)(C)c1ccc(C(=O)N2CCCC(c3nc4c(nnn4Cc4cccc(F)c4)c(=O)[nH]3)C2)cc1 (stereo not drawn)	-1%
CCOC(=O)c1ccc(NC(=O)CNS(=O)(=O)c2ccccc2)cc1	-5%
COc1cc(C(=O)Oc2ccc(/C=N/NC(=O)c3ccncc3)cc2)cc(OC)c1OC	-10%
CCc1ccn2cc(-c3ccc4c(c3)OCO4)nc2c1	-4%
Cc1ccc(C)c(N2CCN(CCCNC(=O)Cn3c(=O)c4cccn4c4cccnc43)CC2)c1	-16%
CC1CN(C(=O)COC(=O)c2cc(S(N)(=O)=O)c(Cl)cc2Cl)CC(C)O1 (stereo not drawn)	-2%
O=C(COC(=O)Cc1n[nH]c(=O)c2ccccc12)NNC(=O)c1ccc(Br)cc1	9%
Cc1ccccc1NC(=O)CC(=O)Nc1ccccc1C	-10%
Cc1cc(Br)cc2c1N(C)C(=O)C2(c1ccc(O)cc1)c1ccc(O)cc1	-14%
CCOc1ccc(N(CC(=O)N2CCN(c3ccccc3)CC2)S(=O)(=O)c2c(C)noc2C)cc1	?
N#Cc1ccc(S(=O)(=O)N2CCN(c3ncccn3)CC2)cc1	-11%
O=C(COc1ccc(C(=O)c2ccccc2)cc1)NCC(=O)Nc1ccccc1Br	-10%
CCOc1ccc(-n2c(=O)c3sccc3n(CC(=O)NCCc3ccc(OC)c(OC)c3)c2=O)cc1	3%
COCCSc1nnc(NC(=O)Cc2ccc(OC)c(OC)c2)s1	9%
CC1(C)C(=O)OC(c2ccc([N+](=O)[O-])cc2)C(C)(C)C1=O (stereo not drawn)	17%
CC(C)C1Cc2c(C#N)c(N)n(C)c(=S)c2CO1 (stereo not drawn)	-2%
COc1ccc(C(=O)N(O)c2ccccc2)cc1	-2%
O=C(NCc1ccncc1)c1ccc2nc(Cc3ccccc3F)oc2c1	-3%

Later entries
SMILES	VDR inhibitor
CCOC(=O)Cn1nc(/C=C/c2ccc(C(C)C)cc2)ccc1=O	21%
O=C(Cn1nnc(-c2ccncc2)n1)N(C1CCCCC1)C1CCCCC1	-9%
CCCCn1c(=O)[nH]c(=O)c2c1nc(-c1ccc(OC)c(Br)c1)n2CC(C)C	8%
COc1cc(NC(=O)c2nn(C)c3c2COc2ccccc2-3)cc(OC)c1OC	15%
CC1CCN(C(c2nnnn2CCc2ccccc2)C(C)C)CC1 (stereo not drawn)	-20%
O=C1C(Cl)=C(N2CCOCC2)C(=O)N1c1ccccc1Cl	45µM*
CCOc1ccc(Br)cc1S(=O)(=O)Nc1cccc(S(=O)(=O)N(C)c2ccccc2)c1	-13%
CCOc1ccccc1NC(=O)CN1C=NS(=O)(=O)c2ccccc21	12%
CCN(CC)c1ccc(/C=N/N2C(=O)c3ccccc3C2=O)c(O)c1	6%
COc1ccc2[nH]cc(CC(N)C(=O)O)c2c1 (stereo not drawn)	?
CCn1c(SCC(=O)N/N=C/c2ccc(C)o2)nnc1-c1ccc(C)cc1	-23%
CCOC(=O)/C(C#N)=C1/SC(CC)C(=O)N1c1ccc(Br)cc1 (stereo not drawn)	4%
Cn1cnc(C(=O)NCc2ccccc2)c1C(=O)NCc1ccccc1	-6%
CCCC(=O)Nc1sc(C)c(-c2ccc(OC)cc2)c1C#N	-9%
NNC(=S)Nc1cccc(Cl)c1	-20%
COc1ccc(OC)c(Cc2nnc(CCC(=O)NC3C4CC5CC(C4)CC3C5)o2)c1 (stereo not drawn)	13%
COc1ccc(F)cc1S(=O)(=O)NCC(c1ccco1)N1CCc2ccccc2C1 (stereo not drawn)	-2%
Cc1ccnc(N/C=C(/NC(=O)c2ccccc2)C(=O)N/N=C\c2ccc(F)cc2)n1	1%
O=C(CSc1nnc(C2CC2)n1-c1ccccc1)N1CCNC1=O	-5%
Cc1ccccc1OCCC(=O)OCC(=O)NCCc1ccc(S(N)(=O)=O)cc1	5%
S=C(NCc1ccco1)Nc1ccccc1Cl	3%
O=C(CN1C(=O)S/C(=C/c2ccncc2)C1=O)Nc1ccccc1	-4%
O=[N+]([O-])c1cccc(S(=O)(=O)NCCNS(=O)(=O)c2cccc([N+](=O)[O-])c2)c1	-1%
Cc1ccc(C)n1-n1c(C)nc2sc3c(c2c1=O)CCCCC3	-14%
Cc1ccc(N(C(=O)CNC(=O)c2ccco2)C(C(=O)NC2CCCCC2)c2cccnc2)c(C)c1 (stereo not drawn)	6%
CN1CCN(C2=Nc3ccccc3Sc3ccc(Cl)cc32)CC1	-5%&-13%
COCCCNC(=O)c1oc2ccc(S(=O)(=O)N3CCOCC3)cc2c1C	-10%
COc1cc2c(cc1OC)C(COc1ccc(F)cc1)N(C(C)=O)CC2 (stereo not drawn)	-1%
CCNC(=O)N1CCCC(C(=O)c2ccc(C(F)(F)F)cc2)C1 (stereo not drawn)	-7%
CCOC(=O)CC(NC(=O)CCc1c(C)nc2cc(-c3ccccc3)nn2c1C)c1ccc(C)cc1 (stereo not drawn)	-8%
C/C=C(\C)CN1CCC(Oc2ccc(C(=O)NCc3ccccn3)cc2)CC1	9%
O=C(Nc1nc(-c2ccc3c(c2)OCO3)cs1)c1ccncc1	-22%
CCOC(=O)c1ccc(NC(=O)C(CC)Sc2nc3ncccc3[nH]2)cc1 (stereo not drawn)	7%
CCCc1cc(=O)oc2cc(C)cc(OCC(=O)NCCCn3ccnc3)c12	18%
COc1ccc(C)cc1NC(=O)c1nnn(-c2c(C)cccc2C)c1C	9%
Cc1ccc(C(=O)NC(C(=O)Nc2cccc(S(N)(=O)=O)c2)C(C)C)cc1 (stereo not drawn)	-20%
S=C(Nc1cccnc1)Nc1ccccc1Br	-28%
COc1ccccc1N1CCN(C(=O)CSc2nnnn2C2CC2)CC1	11%
CCCCOc1ccc(C(=O)NCCS(=O)(=O)N2CCN(c3ccc(F)cc3)CC2)cc1	12%
COc1ccc(N2CCN(C(CNC(=O)C3CCCCC3)c3cccnc3)CC2)cc1 (stereo not drawn)	30%[activator]

In the list so far, these have a CF3 group:
SMILES	VDR inhibitor
CCOC(=O)C1C(c2cccc(F)c2)NC(=S)NC1(O)C(F)(F)F (stereo not drawn)	-13%
CCNC(=O)N1CCCC(C(=O)c2ccc(C(F)(F)F)cc2)C1 (stereo not drawn)	-7%

Carrying on.
SMILES	VDR inhibitor
Cc1ccc(C)c(Cn2c3ccccc3c3cnn(CC(=O)NCCc4ccccc4)c(=O)c32)c1	0%
O=C(OCc1ccccc1)c1cc(S(=O)(=O)N2CCCCC2)ccc1N1CCOCC1	-7%
CC1=C(C(N)=O)C(c2ccccc2)n2nc(-c3ccncc3)nc2N1 (stereo not drawn)	-9%
Cc1onc(-c2ccccc2)c1C(=O)Nc1cc(C(F)(F)F)ccc1N1CCOCC1	-1%
O=C(CNC(=O)c1ccccc1)NC1(C(=O)NC2CCCC2)CCCCC1	-11%
COc1ccc2c(c1)-c1nc(/N=C/c3ccccc3O)sc1CC2	-1%
COC(=O)C1=C(NC(=O)C2CCCCC2)CCS1	-23%
COc1ccc(-c2[nH]ncc2CN2CCN(C3CCCCC3)C(=O)C2)cc1F	2%
COCCn1c(CN2CC(C)CC(C)C2)nc2c1c(=O)n(C)c(=O)n2C (stereo not drawn)	-12%
COc1ccccc1CNc1ccc([N+](=O)[O-])cc1C	-12%

Ordered by heavy-atom count (largest number first): part of the list above.
SMILES	VDR inhibitor
Cc1ccc(C)c(Cn2c3ccccc3c3cnn(CC(=O)NCCc4ccccc4)c(=O)c32)c1	0%
CCCCOc1ccc(C(=O)NCCS(=O)(=O)N2CCN(c3ccc(F)cc3)CC2)cc1	12%
O=C(OCc1ccccc1)c1cc(S(=O)(=O)N2CCCCC2)ccc1N1CCOCC1	-7%
CCCc1cc(=O)oc2cc(C)cc(OCC(=O)NCCCn3ccnc3)c12	18%
CCOC(=O)c1ccc(NC(=O)C(CC)Sc2nc3ncccc3[nH]2)cc1 (stereo not drawn)	7%
COc1ccccc1N1CCN(C(=O)CSc2nnnn2C2CC2)CC1	11%
CC1=C(C(N)=O)C(c2ccccc2)n2nc(-c3ccncc3)nc2N1 (stereo not drawn)	-9%
COc1ccc2c(c1)-c1nc(/N=C/c3ccccc3O)sc1CC2	-1%
O=C(Nc1nc(-c2ccc3c(c2)OCO3)cs1)c1ccncc1	-22%
COc1ccccc1CNc1ccc([N+](=O)[O-])cc1C	-12%
COC(=O)C1=C(NC(=O)C2CCCCC2)CCS1	-23%
S=C(Nc1cccnc1)Nc1ccccc1Br	-28%

(further entries)
SMILES	VDR inhibitor
COc1ccc(S(=O)(=O)N2CCc3ccccc32)cc1C(=O)OCc1nnc(-c2ccccc2)o1	0%
CCOc1ccccc1CN1C(=O)C2(OCCO2)c2ccccc21	-9%
COc1cc(-c2noc(-c3ccc(NCCc4ccccc4)c([N+](=O)[O-])c3)n2)cc(OC)c1OC	7%
Cc1n[nH]c(=O)c2c(NC(=O)CSc3ccccc3F)oc(C)c12	-2%
Cc1cc(C)nc(SCc2cc(=O)c(OC(=O)c3ccc(S(=O)(=O)N4CCCC4)cc3)co2)n1	?
CCCc1nnc(NC(=O)CCC(=O)N2CCCCC2CC)s1 (stereo not drawn)	-15%
COc1cccc(NC(=O)Nc2cccs2)c1	-2%
CC(=O)Nc1ccc(C#Cc2ccc(NC(C)=O)cc2)cc1	-20%
CCOC(=O)N1C2c3ccccc3C(c3ccccc32)N1C(=O)OCC	-16%
Cc1cccc(C(=O)N(NC(=O)Oc2ccccc2)C(C)(C)C)c1	-2%
O=C(c1ccc(N2CCCCC2)c([N+](=O)[O-])c1)N(c1ccccn1)c1ccccn1	-21%
CCOc1ccc(CC(=O)N2N=C(C)CC2(O)C(F)(F)F)cc1 (stereo not drawn)	-12%
O=C(CSc1nc2ccccc2c(=O)n1-c1ccccc1)N1CCc2ccccc2C1	0%
CCOc1ccccc1NC(=O)c1cc2ccccc2oc1=O	-8%
CC(=O)N1CCN(c2ccc(NC(=O)c3cc(Cl)ccc3Cl)cc2)CC1	11%
Cc1ccc(C(c2nnnn2Cc2cccs2)N2CCN(C(=O)c3ccco3)CC2)cc1 (stereo not drawn)	0%
CCOc1cc(N2CCOCC2)c(OCC)cc1NC(=O)C(C)Oc1ccccc1 (stereo not drawn)	12%
COC(=O)c1[nH]c2ccc(C)cc2c1NC(=O)CN1CCC(C)CC1	-4%
Cn1cnnc1SCC(=O)NCCC1=CCCCC1	-1%
Fc1ccccc1CNc1ccc(Cl)c(Cl)c1	-1%
CC(=O)Nc1ccc(S(=O)(=O)NC2CC(=O)N(c3ccc(C)c(C)c3)C2)cc1 (stereo not drawn)	-2%
CSCCC(NS(=O)(=O)c1ccccc1F)C(=O)NCCCn1nc(C)cc1C (stereo not drawn)	12%
